# Bioassay records (PubChem BioAssay)
# Beta apoptosis – beta cell apoptosis inhibition. INS-1E cytokine-induced death, ATP luminescence, 48 h; percent of positive-control rescue, neutral wells zero. protection from apoptosis, % (no concentration beside the values). 300,000 compounds, 0.8% hits;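 active = all replicates at 75% or more, or half of them and the mean; inconclusive = half reach 75% but not the mean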;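 also: 0% = cytokine-treated negative control wells and 100% = positive control rescue; higher means more ATP so stronger rescue from cytokine killing; wells of about 40 µL received 100 nL stock; the first replicate is given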
# rRNA inh HTS – inhibitors of bacterial rRNA selective over humanized ribosomes; E. coli WT GFP vs humanized-ribosome RFP mutants, fluorescence, 24 h; active compounds read low; DMSO median 0, no signal -100; GFP signal change (wild-type ribosome), % (concentration not given with the values); 350,000 compounds, 1.6% hits; AID 720706;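 active = significant combined selectivity score with lowered wild-type GFP, culture density cut under 30%, mutant RFP and density less affected; inactive = any of these conditions unmet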; also: one replicate is shown; some compounds called inactive have numbers as strong as hits
# RanGTP-Imp inh – disruptors of Ran-importin-beta complex formation – biochemical, FRET, CFP-Ran, YFP-importin-beta, homogeneous, primary screen; AID 2216; inhibition, % (no concentration beside the values); cell-free CFP-Ran/YFP-importin-beta FRET ratio; 300,000 compounds, 1.1% hits;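 active = most replicates above 15%; inconclusive = exactly half above 15%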;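 also: 0% = DMSO wells and 100% = Ran loaded with GDP instead of GTP; wells of about 40 µL received 100 nL stock; the first replicate is given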
# A1 inh – inhibitors of the anti-apoptotic protein A1, read as caspase activation. MEF A1-2A-BIM cells, Caspase-Glo 3/7 luminescence, 3 h; percent of clofoctol response, vehicle zero. caspase activation, % (no concentration beside the values). 330,000 compounds, 0.066% hits. AID 2462;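 active = over half of replicate activation scores above 10%, or exactly half above 10 with the replicate mean above 10; inconclusive = replicate mean below 10 yet half the replicates above 10; inactive = over half of replicates below 10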;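 also: wells of about 30 µL received 50 nL stock; many hits fall short of the cut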
# Vif TR-FRET – HIV-1 Vif–A3G interaction blockers – biochemical, TR-FRET, GST-Vif 1-94, biotin-A3G peptide, dose response retest, primary screen (AID 1117319); TR-FRET GST-Vif / biotin-A3G peptide binding; higher % means a stronger effect; test concentration not given here; strong numbers were not always called active; 260,000 compounds, 0.57% hits; inhibition, %, or IC50 in µM where a hit was titrated;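 active = above the screen mean plus three standard deviations and confirmed in dose response; inconclusive = results disagree or hit not tested in dose response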;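 also: Vif residues 1-94 fused to GST binding biotinylated APOBEC3G peptide 110-148; 0% = full assay without inhibitor and 100% = GST in place of GST-Vif; retest series ran down from 100 µM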
# AF4-AF9 inh – MLL-AF4/AF9 protein interaction inhibition; P42568; AlphaScreen, biotin-AF4 peptide binding to FLAG-AF9; inhibition, % at 10 µM; 350,000 compounds, 0.47% hits; AID 651704;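 active = every replicate reaching a set inhibition limit, whatever the replicate mean, cut at about 25% in these data; inconclusive = mean inhibition reaches that limit but some replicates miss it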;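 also: 0% = plate neutral control median and 100% = total signal loss; the record names both 10 and 1 µM as test concentration; the first replicate is given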
# Target sequence (P42568 whole entry, looked up): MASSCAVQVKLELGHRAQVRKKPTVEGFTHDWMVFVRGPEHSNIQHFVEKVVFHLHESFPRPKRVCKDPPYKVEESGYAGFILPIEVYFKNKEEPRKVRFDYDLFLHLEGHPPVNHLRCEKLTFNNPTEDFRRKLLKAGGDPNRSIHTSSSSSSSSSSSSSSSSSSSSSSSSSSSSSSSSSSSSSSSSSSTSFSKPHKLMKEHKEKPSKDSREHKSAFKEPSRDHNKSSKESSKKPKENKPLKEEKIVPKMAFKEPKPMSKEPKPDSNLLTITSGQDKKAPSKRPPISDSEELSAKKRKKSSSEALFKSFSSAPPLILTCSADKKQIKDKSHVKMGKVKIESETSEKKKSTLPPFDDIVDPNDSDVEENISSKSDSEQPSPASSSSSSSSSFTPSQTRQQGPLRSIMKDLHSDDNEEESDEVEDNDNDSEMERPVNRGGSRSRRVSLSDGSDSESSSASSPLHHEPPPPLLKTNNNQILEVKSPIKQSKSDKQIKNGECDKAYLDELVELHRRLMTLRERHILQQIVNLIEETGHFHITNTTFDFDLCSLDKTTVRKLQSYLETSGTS
# T cruzi repl – T. cruzi replication inhibition | T. cruzi beta-gal in NIH3T3, luminescence, 90 h | inhibition, % (no concentration beside the values) | 300,000 compounds, 1.4% hits | AID 1885;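 active = mean inhibition across valid replicates above about 55%, limit read from the data; inconclusive = mean below that limit but half or more replicates reach it; inactive = mean below it, under half of replicates reach it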;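 also: signal also drops with host cell toxicity which is not excluded here; 0% = plate median of DMSO wells and 100% = zero luminescence signal; higher percent means less beta-gal luminescence so fewer parasites; stock transfer was 50 nL into about 50 µL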
# Calb FLC – C. albicans growth modulation with fluconazole; C. albicans CaCi-2 (fluconazole-resistant clinical isolate) + fluconazole, Alamar Blue growth, 48 h; AID 1979; 300,000 compounds, 0.57% hits; growth inhibition, % (concentration not given with the values);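 active = most replicates above 75%; inconclusive = exactly half above 75%; inactive = most below 75%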;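 also: all wells also contain fluconazole at 8 µg/ml as a sub-toxic cotreatment; 0% = median of DMSO wells and 100% = median of geldanamycin control wells; wells of about 8 µL received 7.5 nL stock; the first replicate is given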
# rRNA inh HTS OD600 – recorded beside rRNA inh HTS, whose call it bears; OD600 change, %; measured here: OD600 growth;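 optical density of the mix in the first replicate; 0 = DMSO median and -100 = no signal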
# rRNA inh HTS RFP – recorded beside rRNA inh HTS, whose call it bears; RFP signal change, %; measured here: RFP humanized mutant strains;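 first replicate; 0 = DMSO median and -100 = no signal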
# The depositor's hits bear a star; ? = inconclusive; / = no result given; & = joins results of further samples.
SMILES,Beta apoptosis,rRNA inh HTS,rRNA inh HTS OD600,rRNA inh HTS RFP,RanGTP-Imp inh,A1 inh,Vif TR-FRET,AF4-AF9 inh,T cruzi repl,Calb FLC
COc1cccc(NC(=O)c2cnn(-c3ccccc3)c2C)c1,3,-14,-13,-4.6,?,-9.4,/,-7.5,-15,-15
COC(=O)c1ccc(C(=S)NCC2(N(C)C)CCCCC2)cc1,0,2,6,-2.6,-1.5,0.3,-3%,5.5,-1,-5
CC(=O)N1c2ccccc2C2(O)N=C(C)SC12 (stereo unspecified),-3,/,/,/,/,0.3,1%,/,5,/
NC(=O)C1CCN(C2=C(NS(=O)(=O)c3ccc(Cl)cc3)C(=O)c3ccccc3C2=O)CC1,36,-21*,-13*,1.8*,-3.9,0.8,11%,17,-18,33
CC(=O)c1cccc(OCC(O)CNCCc2ccc(Cl)cc2)c1 (stereo unspecified),-4,0,6,0.2,-3.1,-0.6,1%,0.6,50,/
CCc1cc2c(=O)c(-c3nc4ccccc4n3C)c(C)oc2c(CN2CCN(C)CC2)c1O,6,/,/,/,-2.1,-0.1,13%,/,-25,28
COc1ccc(CNC(=O)CSc2nnc(-c3cccnc3)n2N)cc1,-1,31,26,3.3,0.7,0.9,5%,-0.9,-14,3
O=C(NCCc1ccccc1)C1CCCN(c2nc3ccccc3s2)C1 (stereo unspecified),1,0,6,-1.3,1.6,0.5,/,4.5,-2,5
COCCNC(=O)Cn1cc(C(=O)c2cccs2)c2ccccc21,-19,/,/,/,-0.2,0.3,2%,/,-14,-10
COc1cccc(NC(=O)CN(C)C(=O)c2c(C)nn(-c3ccccc3)c2Cl)c1,1,4,11,0.9,/,-0.5,-6%,0.7,/,/
Cc1ccc(S(=O)(=O)N[C@@H](CC(C)C)C(=O)NCc2ccco2)cc1,-1,/,/,/,?,0.6,-4%,/,-6,-8
CN(CC(=O)Nc1cccc(F)c1)C(=O)CC1CC2CCC1C2 (stereo unspecified),2,5,3,-2.6,1.1,-0.6,-4%,-1.0,1,-7
CSC(=NC1CCCCC1)NS(=O)(=O)c1ccccc1,-10,-5,-21,-0.1,3.8,0.0,-5%&0%,-2.6,4,2
NC(=O)c1cc(S(=O)(=O)N2CCN(c3ccc([N+](=O)[O-])cc3)CC2)cs1,9,-47,-71,-3.5,5.4,0.7,/,4.7,2,0
N#CCC(=O)NNc1c([N+](=O)[O-])cc(C(F)(F)F)cc1[N+](=O)[O-],14,-7,-3,-2.3,2.3,0.7,6%,/,8,-8
COc1ccc(OC)c(NC(=O)c2cc3c(Cl)nc4ccccc4c3s2)c1,8,/,/,/,-2.5,?,/,/,-4,-4
O=C(CN(Cc1ccco1)C(=O)c1ccc(N2CCCC2=O)cc1)Nc1ccccc1C(F)(F)F,/,0,0,1.6,-3.2,0.2,8%,11,-7,3
CCN1CN(CCc2ccccc2)CNC1=S,-4,/,/,/,?,-1.0,-6%,/,-12,6
CSc1nc(N)nc(SCC(=O)CC(=O)OC(C)C)c1C#N,-7,5,6,8.0,12,-4.0,5%,/,7,9
Cc1noc(C)c1S(=O)(=O)N(C)C[C@H]1Oc2c(NC(=O)C3CCCCC3)cccc2C(=O)N([C@H](C)CO)C[C@@H]1C,-6,3,-3,0.9,/,0.3,/,-3.3,/,/
CC(C)N(C(=O)CN1C(=O)NC2(CCCCCC2)C1=O)C(C)C,1,/,/,/,0.2,-0.8,-2%,/,-15,-12
Fc1ccc(NC(=S)NC2CCCCC2)c(F)c1F,30,/,/,/,3.2,-0.1,/,/,-35,1
C=CCn1c(SCC(=O)NC2CC2)nc2ccccc2c1=O,-20,-1,-5,-3.2,/,0.1,1%,-1.7,/,/
CSc1ccc(C(=O)C2CCCN(Cc3cccc4nccnc34)C2)cc1 (stereo unspecified),-5,-6,-5,-2.9,5.2,0.9,/,8.7,33,-2
COc1ccc2ccn(C)c2c1,4,9,17,3.6,/,1.5,/,0.5,/,/
CC(C)CN(CC(C)C)C(=O)CCCC(=O)N(CC(C)C)CC(C)C,-3,/,/,/,3.0,-0.5,/,/,-2,-1
CC(=O)/C=C(\C)NCCNc1c(F)c(F)c(CO)c(F)c1F,3,/,/,/,4.3,-0.4,28%,/,-14,2
CCn1c(SCc2nc3ccccc3[nH]2)nnc1-c1ccc(OC)cc1,3,/,/,/,0.2,0.7,16%,/,-24,22
CCC/C(=N\NC(=O)Cc1csc(N2CCOCC2)n1)c1ccccc1,-7,12,10,-0.1,1.9,-0.3,/,-2.1,0,0
O=C(NCC(c1cccnc1)N1CCOCC1)NC1CCCCC1 (stereo unspecified),-11,5,5,-1.5,1.5,0.6,-3%,0.6,-16,6
Cc1ccc(S(=O)(=O)/N=C2\C=C(Nc3cccc(C(=O)O)c3)C(=O)c3ccccc32)cc1,21,3,-4,4.6,2.1,0.0,/,7.7,7,18
O=S(=O)(NC1CCN(Cc2ccccc2)CC1)c1ccc2ccccc2c1,7,-13,-42,51,5.9,-0.4,18%,2.1,11,-14
COc1ccc(NC(=O)C(=O)N/N=C/c2cccnc2)c(OC)c1,0,3,12,-5.4,?,-1.4,-1%,-23,1,28
COc1ccc(NC(=O)CCCn2nc(C)c3c(C)n(-c4ccccc4)nc3c2=O)cc1OC,-7,4,11,-0.1,-0.5,0.9,/,-1.2,1,5
O=c1c(Cl)c(NCc2ccccc2Cl)cnn1C12CC3CC(CC(C3)C1)C2,13,-8,1,0.1,-1.5,-1.4,8%,3.8,22,59
COCCn1nnnc1C(c1cccs1)N1CCCC(C)C1 (stereo unspecified),-3,2,6,1.9,4.5,-0.1,/,-1.3,14,?
C=C1CCC2[C@](C)(CO[C@@H]3O[C@H](CO)[C@@H](O)[C@H](O)[C@H]3O)CCC[C@@]2(C)[C@@H]1CCC1=CCOC1=O (stereo partly specified),-3,-11,-3,4.0,/,-0.1,/,-2.5,/,/
O=C(Nc1nncs1)c1ccc(F)c(S(=O)(=O)N2CCCCC2)c1,/,9,-1,-0.6,-2.4,/,-3%,-1.5,-2,12
CCN(CC(=O)NCc1ccc(Cl)cc1)C(=O)c1ccc2cc(OC)ccc2c1,2,-6,4,-5.6,-5.4,-1.2,-37%,-1.5,-13,9
CCN(CC)S(=O)(=O)c1cccc(NC(=O)COC(=O)CCC(=O)c2ccc(F)cc2)c1,/,/,/,/,5.4,0.2,?,/,-4,-1
O=C(Nc1cccnc1)C1(c2ccccc2)CCCC1,2,/,/,/,0.7,0.8,-3%,/,4,-16
Cc1ccccc1CNC(=O)c1ccc2ccccc2n1,-26,-3,5,2.5,-4.6,1.2,/,-3.5,-2,-1
CCOC(=O)C1=C(C)Nc2ccccc2N=C1NC(=O)Cc1ccc(OC)cc1,-1,/,/,/,1.3,0.5,15%,/,9,-10
COc1ccc(-c2[nH]c(-c3ccc(C(=O)O)cc3)nc2-c2ccccc2)cc1,-12,/,/,/,?,0.4,9%,/,-23,3
Cc1ccc(CNc2ccc3c(c2)nc(C)n3C)cc1,0,10,6,-1.5,4.0,-3.5,/,11,12,2
O=C(Nc1c2c(nn1-c1ccc([N+](=O)[O-])cc1)CS(=O)(=O)C2)C1CC1,0,-6,1,3.7,1.1,0.9,-1%,-6.7,-6,-15
COc1ccccc1/C=C/C1NC(=O)NC(C)=C1C(=O)OC(C)C (stereo unspecified),1,-3,9,-0.5,0.6,-1.0,-7%,-0.1,3,-15
COc1ccc(NC(=S)NCCN2CCOCC2)cc1,-7,11,20,3.0,8.1,0.2,1%,1.9,-16,-5
CCSc1nc2ccc(C)cc2cc1C#N,-8,3,-29,-4.5,3.4,0.7,7%,-1.5,-5,-2
COc1cccc(CN(C)C(=O)c2sccc2-c2ccccc2)c1OC,-3,-19,-29,2.0,1.7,0.4,/,-0.4,8,3
CN(C)C(=O)c1ccccc1-c1ccccc1,-1,/,/,/,-3.3,0.8,3%,/,3,-2
CC(C)NC(=O)C1(c2ccccc2)CC1(Cl)Cl (stereo unspecified),-6,/,/,/,-2.2,0.5,/,/,2,9
CCOc1cc(C2CC(=O)NC3=C2C(=O)C(C(=O)OC)C(C)C3)cc(Br)c1O (stereo unspecified),-11,/,/,/,-2.2,0.7,26%&-10%,/,-12,5
CCOc1ccccc1Nc1nc(N)nc(CN2CCCCC2C)n1 (stereo unspecified),-4,6,13,3.7,3.7,-0.5,15%,-11,-6,-21
CCCCCCCCCCCCN1[C@@H](CC(=O)OC)c2cc(C(F)(F)F)ccc2S1(=O)=O,1,/,/,/,-2.7,-1.5,/,/,-3,-9
COC(=O)[C@@H]1C[C@H]2CC[C@H](O)C[C@H]2N1Cc1ccc(N2CCN(C)CC2)cc1,-3,5,-3,7.7,2.4,0.7,/,/,-10,8
C=CCN1CCN(C(c2ccccc2)c2nnnn2CCC(C)C)CC1 (stereo unspecified),-1,/,/,/,-1.0,0.4,13%,/,4,2
Cc1ccc(NC(=O)Cc2nc(CN(C)CC(=O)Nc3ccc(C)cc3)cs2)cc1,0,-4,-15,6.3,/,1.9,/,3.5,/,/
Cc1cc(/C=N/NC(=O)c2c(Br)cnn2C)c(C)n1-c1cccc(Br)c1,1,3,-7,1.4,-1.7,-0.3,1%,9.3,13,-7
O=c1[nH]c(=O)c2nc3ccccc3nc2[nH]1,4,4,8,-15,-5.6,1.9,/,-0.7,-11,-4
# The results go on:
SMILES,Beta apoptosis,rRNA inh HTS,rRNA inh HTS OD600,rRNA inh HTS RFP,RanGTP-Imp inh,A1 inh,Vif TR-FRET,AF4-AF9 inh,T cruzi repl,Calb FLC
CC(C)n1nc(C(=O)N2CCN(S(=O)(=O)c3cccs3)CC2)c2ccccc2c1=O,-9,-12,2,4.1,3.2,1.1,/,-8.3,7,4
Cc1cccc(NC(=O)CN2C(=O)N/C(=C/c3cc(C)n(-c4ccncc4)c3C)C2=O)c1,-5,/,/,/,3.7,0.0,/,5.8,-9,29
COc1cccc(CN(CC2CCCO2)S(=O)(=O)c2ccc(S(=O)(=O)N(C)C)cc2)c1 (stereo unspecified),0,/,/,/,5.8,0.1,2%,/,3,-8
O=C(CSc1nnc(CN2CCOCC2)n1-c1ccc(Cl)cc1)Nc1cc(Cl)ccc1O,-6,/,/,/,/,-0.6,7%&-7%,/,/,0
Cc1ccc2oc(C(=O)Nc3nnc(C)s3)c(C)c2c1,3,/,/,/,0.1,-0.1,?,/,-26,2
Cc1nnc(SCC(=O)Nc2ccc(Cl)cn2)s1,1,2,17,-4.5,-0.9,0.2,/,2.4,-1,10
O=C(CN1CCCC1)Nc1ccc(Br)cc1,0,6,-8,6.8,2.5,0.4,8%,-9.7,2,30
CCN1C(=O)c2cccc3cccc1c23,/,7,6,-2.3,-4.9,-0.3,-1%,3.3,-6,-4

# These rows are one share of the data; count on the stated rates, not on these rows.
